Autofluor counter – compound fluorescence in toxin protease inhibitor counterscreen | 360,000 compounds, 3.1% hits | compound autofluorescence counterscreen, microsphere flow cytometry; active compounds read high | fluorescence intensity (concentration not given with the values);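 active = at least 3 SD above the mean of all compounds, about 16000 in these data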;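 note: 100 nL of 1 mM stock went into each well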
BJeLR lethal – BJeLR cell viability loss. inhibition, % (no concentration beside the values). 300,000 compounds, 0.17% hits. BJeLR (HRASV12) viability, CellTiter-Glo ATP luminescence, 48 h; reference of the scale not given here;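 active = replicate mean above 50%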;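 note: 50 nL library stock added to about 25 µL; numbers are from one replicate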
Sa RN4220 lethal – S. aureus RN4220 growth inhibition; OD600, 16 h; inhibition, % (test concentration not listed); 330,000 compounds, 0.33% hits;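 active = z-score of -3 or lower and OD600 up to 0.18 on both plates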;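 note: plate controls were untreated cells for no effect and reference antibiotic for full effect; stock transfer was 100 nL into about 80 µL; one replicate is shown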
PrP UTR inh – inhibition of PrP 5' UTR reporter expression; cell-based PrP 5' UTR mRNA reporter, plate reader; inhibition, % (test concentration not listed); 340,000 compounds, 0.35% hits; AID 488862;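 active = every replicate at 50% or more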;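 note: 0 = median of the neutral control wells; tested in H4 reporter cells; numbers are from one replicate; inactives centre near -14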
Sa ugtP lethal – growth inhibition of S. aureus ugtP deletion strain; S. aureus RN4220 ugtP deletion, OD600 growth, 16 h; some inactives read as strong as hits; growth inhibition, % (test concentration not listed); 330,000 compounds, 0.54% hits;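 active = z-score under -3 and OD600 up to 0.15 on both plates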;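 note: plate controls were untreated wells for no effect and antibiotic for full effect; wells of about 80 µL received 100 nL stock; the first replicate is given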
Mtb hypoxia inh – reduces hypoxia-regulated biosensor signal in M. tuberculosis; M. tuberculosis hypoxia-regulated fluorescent reporter, fluorescence; fluorescence inhibition, % (test concentration not listed); 300,000 compounds, 0.1% hits;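 active = 35 to 45% if threefold the growth effect, above 45% if 1.5-fold the growth effect; inactive = the rest, general growth blockers included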;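 note: wells of about 50 µL received 100 nL stock; 0% = vehicle wells and 100% = reference inhibitor wells; whole bacteria with a GFP reporter of the hypoxia response; strong numbers were not always called active; many hits fall short of the cut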
Mtb hypoxia inh growth – further read-out of Mtb hypoxia inh, marked with its call; growth inhibition, %; measured here: M. tuberculosis growth (absorbance);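 0% = vehicle and 100% = reference antibiotic; read after six days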
Active calls of the source: *; / = no result given. Compounds were not picked by outcome; any-hit rate near 4%.

SMILES | Autofluor counter | BJeLR lethal | Sa RN4220 lethal | PrP UTR inh | Sa ugtP lethal | Mtb hypoxia inh | Mtb hypoxia inh growth
CN(C(=O)Cc1c(C(=O)O)n(C)c2ccccc12)c1ccc(F)cc1 | 4530 | 11 | 4.9 | -36 | 7 | 6 | 0
COc1cccc(C2CC(c3cccs3)=NN2C(=S)Nc2ccccc2)c1OC (stereo unspecified) | 3587 | 0 | 16 | -5 | 17 | -15 | -1
CCN(CC)CCNC(=O)CCc1nnc2ccc(N3CCC(C)CC3)nn12 | 3543 | 6 | 1.3 | -16 | 4 | 7 | 4
COc1ccc(/C=C2/SC(=O)N(CCNC(=O)C3COc4ccccc4O3)C2=O)cc1 (stereo unspecified) | 10595 | -5 | 2.1 | -10 | -2 | 7 | 3
O=C1CCCN1C(=O)COc1ccc([N+](=O)[O-])cc1 | 5563 | 7 | 2.5 | -2 | 10 | 1 | 2
CC1(c2ccccc2Cl)NC(=O)N(CC(=O)NC(=O)NCc2ccco2)C1=O (stereo unspecified) | 3753 | -4 | -5.2 | -16 | 2 | -4 | 2
CCCCN(C(=O)c1ccc(-c2ccc(Cl)cc2)o1)c1c(N)n(CCC)c(=O)[nH]c1=O | 3259 | / | -1.5 | -21 | 0 | 7 | -5
CCc1nnc(NS(=O)(=O)c2ccc(NC(=O)OC)cc2)s1 | 11418 | 10 | 0.2 | -2 | -3 | -5 | 16
O=C(CSc1nnc(CNC(=O)c2cccs2)o1)Nc1cccc(C(F)(F)F)c1 | 4297 | 5 | 6.3 | -19 | 5 | 13 | 4
C(=N\Nc1ccccn1)/c1ccc2c(c1)OCCO2 | 3423 | 7 | / | -4 | / | / | /
O=C(/C=C/C=C/c1ccc2c(c1)OCO2)N1CCCCC1 | 4903 | / | 7.4 | -51 | 0 | / | /
COC(=O)Cc1ccc(NC(C)=O)cc1 | 3564 | / | 7.0 | -28 | 7 | 5 | 2
CC(=O)c1cn(Cc2ccc(C#N)cc2)c2ccccc12 | 2546 | -3 | 1.4 | -11 | 12 | -2 | 9
Cc1[nH]c(=O)c(C#N)c(C)c1[N+](=O)[O-] | 4855 | -6 | 7.2 | -64 | 4 | -9 | -15
COc1ccc(CNC(=O)Cn2cccc2C(=O)c2ccccc2)cc1 | 5912 | 0 | 0.8 | -38 | 1 | -2 | 5
COc1ccc2c(c1)C(SCC(=O)NCCc1ccc(Cl)cc1)CC(C)(C)O2 (stereo unspecified) | 4425 | -5 | -6.2 | -26 | -18 | / | /
FC(F)(F)c1ccc(Cl)c(-n2c(Cc3cccs3)n[nH]c2=S)c1 | 4356 | 0 | 3.5 | -20 | 11 | 5 | -5
CN(Cc1ccccc1Cl)C(=O)C1CCC(=O)N(C2CCCCCC2)C1 (stereo unspecified) | 6353 | -2 | 3.2 | -7 | 1 | 15 | 13
C=CCn1c(SCC(=O)NC2CCS(=O)(=O)C2)nc2scc(C3CC3)c2c1=O (stereo unspecified) | 4576 | -4 | 7.1 | -13 | -9 | 14 | 8
CSc1nnc(-c2cc3c(s2)-c2ccccc2CC3)o1 | 2731 | -7 | 4.9 | -70 | -3 | / | /
O=C(Nc1c2c(nn1-c1ccccc1)CS(=O)(=O)C2)c1ccccc1C(F)(F)F | 5276 | -16 | 6.9 | 0 | 13 | 2 | -4
COc1ccccc1-n1c(SCC(=O)Nc2ccc(C)cc2)nc(O)cc1=O | 3152 | -4 | 8.1 | -1 | 16 | / | /
O=C(Cc1cccc(NC(=O)C2CCCN(C(=O)C3CCC3)C2)c1)Nc1cccc(C(=O)N2CCCC2)c1 (stereo unspecified) | 3979 | / | 0.8 | -24 | 1 | -2 | 3
O=C(CN1C(=O)c2ccccc2C1=O)NC1(C(=O)O)CCCC1 | 3957 | / | 1.4 | -4 | 2 | 3 | -3
Cc1ccc(C=NN2CCN(Cc3ccccc3)CC2)s1 | / | / | 2.4 | / | 19 | 6 | 6
COCc1cc(C)n(CC(=O)NCc2ccccc2)c(=O)c1C#N | 2403 | -1 | / | -7 | / | / | /
O=S(=O)([N-]c1nc2ccccc2nc1-[n+]1ccccc1)c1ccc(Cl)cc1 | 4620 | 4 | -3.9 | -10 | -1 | / | /
Cc1ccc2nc(N(CCCN(C)C)C(=O)c3ccc(Br)s3)sc2c1 | 4033 | 0 | -4.7 | -7 | 5 | 9 | 10
N/C(=N\OC(=O)CCCOc1ccccc1)c1ccc([N+](=O)[O-])cc1 | 4344 | 3 | / | -17 | / | / | /
Cc1cc(OCc2cc(C(=O)N3CCN(C)C(=O)[C@@H]3C)no2)cc(C)c1Cl | 5959 | -1 | 3.8 | -19 | -5 | 6 | 2
CC(C)Oc1ccc(CNC(=O)CC(c2ccccc2)c2cc(Cl)ccc2O)cc1 (stereo unspecified) | 10602 | 0 | 2.2 | -7 | -12 | 1 | 5
COc1cccc(-c2ocnc2C(=O)Nc2ccc(N3CCOCC3)cc2N2CCOCC2)c1 | 5146 | -3 | 7.2 | -2 | 2 | 3 | 10
c1ccc(-n2nnc3cnccc32)cc1 | 3950 | -1 | 3.4 | -15 | 8 | 8 | 6
COc1ccccc1N(CC(=O)NC(C)(C)C)C(=O)C1CSC(=O)C1 (stereo unspecified) | 9323 | -3 | / | -24 | / | / | /
Cc1cc(C)c(OCC(=O)Nc2ccc(S(=O)(=O)N3CCCC3)cc2)c(C)c1 | 5751 | 1 | -7.1 | -9 | -6 | -12 | -2
COCCn1c(=S)[nH]c2sc3c(c2c1=O)CCCC3 | 6277 | 3 | / | -12 | / | / | /
COc1cccc(C(=O)NCC2(c3ccccc3)CCCC2)c1 | 4215 | -3 | 0.8 | -27 | 12 | 8 | 11
CCOc1ccc(C(C)=O)cc1COC(=O)c1cnc(Cl)c(Cl)c1 | 4335 | 10 | 2.8 | -1 | -5 | 9 | 9
CC=CC=CC(=O)Nc1cccc(C2=NOC3(C2)CC(C(N)=O)N(C(=O)CCCCC)C3)c1 (stereo unspecified) | / | / | 3.2 | / | -10 | 6 | 7
O=C(NN=Cc1ccccc1O)c1cc[n+]([O-])cc1 | / | / | 2.5 | / | 3 | 6 | -8
COc1ccc(NS(=O)(=O)c2cccc3nonc23)c(OC)c1 | 9046 | -7 | 0.4 | -9 | -3 | -1 | -3
CC(NC(=O)OCc1ccccc1)C(=O)N1CC(O)CC1C(=O)O (stereo unspecified) | 2628 | -4 | / | -8 | / | / | /
CN(C)C(=O)c1ccc(NC(=O)COC(=O)C2=COCCO2)cc1 | 5339 | -12 | -1.0 | -13 | 0 | -3 | 0
O=C(O)COc1ccc(Br)cc1/C=C1/SC(=O)N(CC(=O)N2CCCC2)C1=O | 3344 | -2 | 3.9 | -3 | 3 | / | /
COc1ccccc1C(=O)NC(=S)Nc1ccccc1N1CCCCC1 | 5872 | -7 | -7.6 | -3 | 93* | 6 | 3
COc1ccc(NC(=O)COC(=O)Cn2nnc3ccccc32)cc1 | 3251 | 4 | 1.9 | -4 | -5 | 9 | -3
COc1cc(OC)cc(C(=O)NCC(=O)N2CCN(c3ccc(O)cc3)CC2)c1 | 2812 | -11 | 3.1 | -13 | 0 | 19 | 2
CCCn1c(=O)c(C(=O)OCC)c(O)c2cc(Br)ccc21 | 2463 | 1 | 8.4 | -9 | 5 | 17 | 17
CC1CCCC(NC(=O)COC(=O)c2cc(S(=O)(=O)N3CCOCC3)ccc2F)C1C (stereo unspecified) | 4423 | / | -1.9 | 8 | -4 | -6 | -4
COc1cc2c(cc1OC)CN(CC(=O)Nc1ccc(F)cc1F)CC2 | 4400 | -4 | 2.9 | -24 | 14 | 1 | 9
COc1ccc(-c2c(-c3ccccc3OC)sc3ccccc23)cc1C=O | 3308 | / | -5.6 | -15 | 69 | 9 | 0
O=C(CCN1C(=O)c2ccccc2C1=O)Nc1ccc2c(c1)OCCO2 | 15382 | -6 | 2.7 | -25 | 1 | -2 | 5
Cc1ccc2c(c1)N(S(=O)(=O)c1ccc(F)cc1)C(C(C)(C)C)CO2 (stereo unspecified) | 10353 | -1 | 1.2 | -16 | -20 | 17 | 1
O=C(O)COc1ccc(/C=C/C(=O)c2ccc(C3CCCCC3)cc2)cc1 | 5678 | 2 | / | -42 | / | / | /
O=C(Cc1ccccc1)Nc1cccc([N+](=O)[O-])c1 | 2140 | 0 | -0.3 | -20 | -1 | 13 | 11
CN1CCN(c2ccc(NC(=S)NC(=O)c3cccc4c(Br)cccc34)cc2)CC1 | 5392 | -8 | -0.8 | -16 | 56 | -2 | 7
CCOC(=O)NC1(C(F)(F)F)NC(=O)N(Cc2ccco2)C1=O (stereo unspecified) | 16624* | 15 | 4.6 | -12 | 7 | 3 | 5
CC(=NNC(=O)c1cccc(S(=O)(=O)N2CCCC2)c1)c1ccccc1 | 3866 | / | 2.0 | -23 | 1 | -2 | 1
COc1ccc(/C=N/Nc2nc(Nc3ccccc3)nc(N3CCCCC3)n2)cc1OC | 8692 | -2 | / | -65 | / | / | /
CCOc1ccc(NC(=O)CCSc2ccc3ccccc3n2)cc1 | 7344 | -10 | 1.9 | -25 | 39 | 9 | 1

The last five records of the part before are carried over, then new ones follow:
SMILES | Autofluor counter | BJeLR lethal | Sa RN4220 lethal | PrP UTR inh | Sa ugtP lethal | Mtb hypoxia inh | Mtb hypoxia inh growth
CN1CCN(c2ccc(NC(=S)NC(=O)c3cccc4c(Br)cccc34)cc2)CC1 | 5392 | -8 | -0.8 | -16 | 56 | -2 | 7
CCOC(=O)NC1(C(F)(F)F)NC(=O)N(Cc2ccco2)C1=O (stereo unspecified) | 16624* | 15 | 4.6 | -12 | 7 | 3 | 5
CC(=NNC(=O)c1cccc(S(=O)(=O)N2CCCC2)c1)c1ccccc1 | 3866 | / | 2.0 | -23 | 1 | -2 | 1
COc1ccc(/C=N/Nc2nc(Nc3ccccc3)nc(N3CCCCC3)n2)cc1OC | 8692 | -2 | / | -65 | / | / | /
CCOc1ccc(NC(=O)CCSc2ccc3ccccc3n2)cc1 | 7344 | -10 | 1.9 | -25 | 39 | 9 | 1
CCn1c(SCC(=O)C(C)(C)C)nnc1-c1cnccn1 | 6921 | -7 | -0.8 | -24 | 7 | 11 | -4
CCC1(c2ccccc2)NC(=O)N(CC(=O)N(c2ccccc2)C2CCS(=O)(=O)C2)C1=O (stereo unspecified) | 3690 | / | 2.0 | -14 | 3 | 9 | 8
Cc1ccc(Nc2nc(C)cc(C)c2C(N)=O)c(C)c1 | 3577 | -6 | 1.3 | -18 | 6 | 6 | -4
COCCN(Cc1nc(C(c2ccccc2)c2ccccc2)no1)C(C)C | 3195 | -16 | 6.6 | -9 | 11 | 2 | 9
COc1ccc(C2=NN(c3nc4ccccc4s3)C(=O)C2)cc1 | 4608 | -1 | 98* | -9 | 99* | -2 | 11
CCOc1ccccc1N1C(=O)NC(=O)/C(=C/c2ccc3c4c(cccc24)CC3)C1=O | / | -4 | 12 | -1 | 6 | 4 | -20
O=S(=O)(Nc1cccc(-c2ccc(N3CCCCCC3)nn2)c1)c1ccccc1F | 5241 | -4 | 2.2 | -40 | 5 | 0 | -2
COc1ccc(C(=O)NCC23C=CC(O2)C2C(=O)N(Cc4ccccc4)C(=O)C23)cc1 (stereo unspecified) | 19591* | 2 | 3.8 | -15 | -2 | 3 | 13
O=C(NCCCN1CCOCC1)c1cc2c(s1)CSC2 | 10795 | 1 | 7.5 | -28 | 1 | 9 | 13
COc1ccc2c(CSc3nc4nc(C)cc(C)n4n3)cc(=O)oc2c1 | 4715 | -13 | -2.3 | -13 | 5 | / | /
COc1cc2c(-c3ccc4[nH]ccc4c3)c(-c3ccc(C#N)cc3)oc(=O)c2cc1OC | 4140 | / | -8.9 | -30 | 2 | -10 | 13
COc1ccc(C(=O)Nc2cccc([N+](=O)[O-])c2)cc1Br | 4756 | 0 | -1.2 | -33 | -21 | / | /
CC1CCCC(NC(=O)C2CCN(S(=O)(=O)N3CCOCC3)CC2)C1C (stereo unspecified) | 11338 | 4 | 2.4 | -16 | 5 | 5 | 6
CCOc1ccc(N2CC(C(=O)NCCN3C(=O)S/C(=C/c4cccnc4)C3=O)CC2=O)cc1 (stereo unspecified) | 5613 | / | 3.0 | 3 | 0 | 2 | 14
O=C(NN=Cc1ccncc1)c1cc(-c2ccc(Br)s2)[nH]n1 | / | / | 3.0 | / | -3 | -5 | -7
Cc1ccc(OCc2nc(C#N)c(NCCCn3ccnc3)o2)cc1 | 3397 | -4 | 5.7 | 5 | 6 | 13 | 13
